# High-throughput results deposited in PubChem by National Center for Advancing Translational Sciences (NCATS).
# GLA inh pH 4.5: blocks human alpha-galactosidase A at pH 4.5; 230,000 tested, under 10 active; activity change, negative = inhibition, % at 105 µM; P06280; purified enzyme, 4-MU-alpha-Gal fluorescence, pH 4.5; inconclusive = small, poorly fitted or top-dose-only inhibition, or a rising curve; inactive = flat fitted curve, though single readings scatter; no compound was filed as active;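 note: 0% = full activity with enzyme and -100% = basal without enzyme; dose as in the result columns while the protocol names 77 µM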
# Target sequence (P06280 whole entry, looked up): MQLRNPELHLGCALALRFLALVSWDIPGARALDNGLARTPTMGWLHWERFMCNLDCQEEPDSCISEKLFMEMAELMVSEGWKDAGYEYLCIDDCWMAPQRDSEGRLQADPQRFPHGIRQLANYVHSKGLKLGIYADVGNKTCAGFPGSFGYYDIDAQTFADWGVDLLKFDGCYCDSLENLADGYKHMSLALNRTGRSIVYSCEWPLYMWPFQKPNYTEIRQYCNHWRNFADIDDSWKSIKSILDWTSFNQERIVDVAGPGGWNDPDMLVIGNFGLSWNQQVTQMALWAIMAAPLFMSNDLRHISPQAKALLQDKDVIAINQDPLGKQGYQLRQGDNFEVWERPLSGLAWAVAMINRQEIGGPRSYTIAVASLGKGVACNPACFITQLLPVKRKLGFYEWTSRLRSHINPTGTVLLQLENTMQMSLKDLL
# Rango release inh: inhibitors of RanGTP-induced Rango-importin beta complex dissociation. Biochemical FRET Rango-importin beta, RanGTP-induced dissociation. Potency, µM (top dose mostly 46.1 µM), without a hit: top-dose activity change, negative = inhibition. 340,000 tested, 0.071% active; active means falling FRET ratio curve, often poorly fitted, with flat reads before Ran was added; inconclusive means other falling curves, or compound fluorescence or quenching; inactive means flat or rising ratio curve;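 note: potency is the fitted concentration of half-maximal effect; % of control where 0% means no effect; nearly all actives have a fitted effect of over 45% in size; -100% = wells without RanGTP and RCC1; the record marks most hits as doubtful in a second field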
#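 Quantitative HTS using a FRET biosensor: 0.1 uM Rango, 0.25 uM importin beta, 0.6 uM Ran, 2 mM GTP, 0.2 uM RCC1 final, PBS with DTT, Tween-20 and BSA. Post-read taken 45 min after Ran addition.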
# miR-21 FLuc: miR-21 reporter, rising signal; HeLa miR-21 FLuc reporter, luciferase, 48 h; Potency, µM (top dose mostly 38.3 µM), without a hit: top-dose reporter change, positive = more light; 340,000 tested, under 10 active; active = well fitted rising curve with a large enough effect; inconclusive = small, poorly fitted or top-dose-only effect; inactive = no such curve, though single readings can be large or run the other way;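 note: % of control where 0% means no effect; miR-21 action dims this reporter so a rising signal means less miR-21 action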
#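 HeLa miR-21-FLuc reporter line, endogenous miR-21; 2000 cells/well in DMEM/10% FBS; compound titration up to ~40uM final, 48 h, 37 degree Celsius; luciferase detection reagent, 15 min lysis, CCD luminescence.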
# Rango complex inh: prevents formation of the Rango-importin beta complex; Q14974; Rango CFP/YFP FRET sensor + importin beta, 45 min; Potency, µM (titrated, usually from 92.2 µM), inactives show at the highest dose inhibition of complex formation; 340,000 tested, 0.031% active; active = rising FRET ratio curve, often small or poorly fitted; inconclusive = mostly compound fluorescence or quenching in the first reads; inactive = flat curves in all reads;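 note: potency is the fitted concentration of half-maximal effect; 0% = DMSO wells and 100% = buffer wells lacking importin beta; nearly all actives have a fitted effect of over 15% in size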
#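 FRET biosensor Rango (snurportin 1 IBB between N-terminal EYFP and C-terminal Cerulean), 50 nM in PBS/1 mM DTT/0.02% Tween-20/0.1% BSA, preincubated 5 min RT with compound; 0.125 microM importin beta added, 45 min RT, CFP/YFP FRET ratio read.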
# Starred values were filed as active, the others as inactive; u = inconclusive; x = not tested or not shown. An excerpt, so the mix of outcomes need not match the whole.
1. CCOC(=O)C1CCN(C(c2cc(OC)c(OC)c(OC)c2)c2sc3nc(C)nn3c2O)CC1 (stereo not given)
2. CC1(C)NC(=O)N(CCOCCOc2c(Cl)cc(Cl)cc2Cl)C1=O
3. Cc1ccc(NS(=O)(=O)c2cccc(C(=O)NCC(c3ccco3)N3CCCC3)c2)cc1 (stereo not given)
4. O=C(/C=C/c1ccc([N+](=O)[O-])cc1)OCC(=O)N1CCCC1
5. Cn1cc(CN2CCC(CO)(CCCc3ccccc3)CC2)c(-c2ccccc2)n1
6. CCCCn1nc(NC(=O)CCC)c2cc3cc(OC)ccc3nc21

assay / entry	1	2	3	4	5	6
GLA inh pH 4.5	4	5	x	x	-2	x
Rango release inh	-3%	-4%	3%	2%	0%	u
miR-21 FLuc	-10%	-11%	x	x	-11%	-8%
Rango complex inh	-1.5%	3.2%	1.7%	-0.3%	0.7%	u

# Complete entries from above. Order of screens: GLA inh pH 4.5, Rango release inh, miR-21 FLuc, Rango complex inh
# Shown for `Cn1cc(CN2CCC(CO)(CCCc3ccccc3)CC2)c(-c2ccccc2)n1` = -2, 0%, -11%, 0.7%
# Shown for `CCOC(=O)C1CCN(C(c2cc(OC)c(OC)c(OC)c2)c2sc3nc(C)nn3c2O)CC1` (stereo not given) = 4, -3%, -10%, -1.5%

# (continued)
7. CC(C)=CCN1CCN(Cc2ccc(C#CC(C)(C)O)s2)CC1CCO (stereo not given)
8. Cc1ccccc1-c1c(C)oc2cc(O)ccc2c1=O
9. Cc1n(Cc2ccccc2)c2cc([N+](=O)[O-])ccc2[n+]1Cc1ccccc1
10. NCCc1nnc(SCc2c(Cl)cccc2Cl)o1
11. Cc1ccc(NS(=O)(=O)c2c(C)nc3sccn3c2=O)cc1C
12. CCOc1ccc(CCNC(=O)CCc2nnc3ccc(N4CCCC4)nn23)cc1OCC

assay / entry	7	8	9	10	11	12
GLA inh pH 4.5	-4	11	x	2	x	x
Rango release inh	-1%	34%	-3%	-15%	1%	0%
miR-21 FLuc	1%	-15%	1%	1%	6%	-4%
Rango complex inh	-1.6%	0.0%	3.4%	1.4%	4.0%	-2.2%

13. Cc1ccc(N(CC(=O)NCC2CCCO2)C(=O)CNS(=O)(=O)c2ccc(Cl)cc2)cc1 (stereo not given)
14. CC(Cc1nnc(N)s1)c1ccccc1 (stereo not given)
15. CN(CC(=O)Nc1cccc(F)c1)C(=O)c1cc([N+](=O)[O-])ccc1N1CCCCC1
16. Cc1ccc(C)c(NC(=O)CNS(=O)(=O)c2ccccc2)c1
17. COc1ccc(Cc2nc3ccc(C(=O)N(C)Cc4cc(C)[nH]n4)cc3o2)cc1OC
18. Cc1ccc(OCC(=O)N2CCCC(CCC(=O)N(C)CCc3ccccn3)C2)cc1 (stereo not given)

assay / entry	13	14	15	16	17	18
GLA inh pH 4.5	x	x	x	-19	x	2
Rango release inh	15%	-22%	18%	10%	1%	5%
miR-21 FLuc	-3%	1%	x	-8%	11%	-1%
Rango complex inh	-3.6%	-0.1%	-2.0%	-0.2%	0.6%	0.1%

19. Cc1ccc(NC(=O)CC2S/C(=N/c3nccs3)N(C)C2=O)cc1C (stereo not given)
20. O=C(O)c1nc(N2CCOCC2)nc(N2CCOCC2)n1
21. Cn1c(=S)[nH]c(=O)c2ncc(=O)[nH]c21
22. OCCOCCOc1cccc2[nH]ccc12
23. CCOc1ccc(CN=C(N)N=C(N)N)cc1Cl
24. O=C(CSc1ncccn1)NN=C1CCCCCC1

assay / entry	19	20	21	22	23	24
GLA inh pH 4.5	5	-7	1	4	3	2
Rango release inh	12%	-5%	-8%	3%	u	-14%
miR-21 FLuc	0%	-1%	0%	-5%	11%	-11%
Rango complex inh	-0.1%	-4.8%	-0.7%	-0.4%	1.7%	-1.3%

25. O=C1N=C(N2CCN(c3ccccc3)CC2)S/C1=C/c1cccs1
26. O=C(CNS(=O)(=O)c1cccs1)N1CCCCC1
27. O=C(NCCOc1ccccc1)C(c1ccccc1)c1ccccc1
28. COc1cc(OC)c(NC(=O)CCNS(=O)(=O)c2cc(Br)cnc2N)cc1Cl
29. CC(Sc1cccc[n+]1[O-])C(=O)Nc1ccc([N+](=O)[O-])cc1Cl (stereo not given)
30. COc1cccc(/C=N/NC(=O)C(=O)NCc2ccco2)c1O

assay / entry	25	26	27	28	29	30
GLA inh pH 4.5	-20	x	2	-4	5	-1
Rango release inh	25%	-13%	-18%	-9%	6%	3%
miR-21 FLuc	-19%	-10%	0%	6%	-2%	9%
Rango complex inh	-0.7%	-2.7%	-0.4%	-2.1%	4.4%	7.0%

31. CNC(=O)C12CC3CC(CC(Cl)(C3)C1)C2
32. O=C(Nc1ccc2c(c1)OCO2)c1ccc(=O)[nH]n1
33. COc1ccc(CCNC(=O)C2CCN(C(=O)c3ccc(C(C)(C)C)cc3)CC2)cc1OC
34. CC(C)N1CC(O)=C(c2ccccc2)C1=N
35. CCOC(=O)C1=C(c2ccccc2)NC(SC)=C(C#N)C1c1ccco1 (stereo not given)
36. O=C(Cn1nc(-c2ccc(Cl)cc2)ccc1=O)NCCCN1CCN(Cc2ccccc2)CC1

assay / entry	31	32	33	34	35	36
GLA inh pH 4.5	9	-1	x	4	-2	3
Rango release inh	1%	-16%	-5%	-15%	3%	-1%
miR-21 FLuc	0%	-44%	-14%	-1%	7%	3%
Rango complex inh	-2.0%	8.6%	-0.2%	-2.6%	0.7%	-1.1%

37. CC(Oc1cc(Cl)ccc1Cl)C(=O)N/N=C\c1ccnn1C (stereo not given)
38. COc1ccc(NC(=O)CCCn2c(=O)c3sccc3n(Cc3cccc(C)c3)c2=O)cc1
39. CCN(CC)C(=O)c1sc(NC(=O)Cc2ccccc2)c(C#N)c1C
40. O=C(CN(Cc1ccco1)C(=O)c1nsc(Cl)c1Cl)NC1CCCCC1
41. COCCCn1c(SCC(=O)N2CCOCC2)nnc1-c1ccco1

assay / entry	37	38	39	40	41
GLA inh pH 4.5	-1	-9	-1	5	x
Rango release inh	11%	-5%	10%	-2%	0%
miR-21 FLuc	-18%	-9%	-12%	-2%	3%
Rango complex inh	4.5%	-2.7%	-0.1%	0.3%	u

# Records 28 to 41, reprinted for reference:
28. COc1cc(OC)c(NC(=O)CCNS(=O)(=O)c2cc(Br)cnc2N)cc1Cl
29. CC(Sc1cccc[n+]1[O-])C(=O)Nc1ccc([N+](=O)[O-])cc1Cl (stereo not given)
30. COc1cccc(/C=N/NC(=O)C(=O)NCc2ccco2)c1O
31. CNC(=O)C12CC3CC(CC(Cl)(C3)C1)C2
32. O=C(Nc1ccc2c(c1)OCO2)c1ccc(=O)[nH]n1
33. COc1ccc(CCNC(=O)C2CCN(C(=O)c3ccc(C(C)(C)C)cc3)CC2)cc1OC
34. CC(C)N1CC(O)=C(c2ccccc2)C1=N
35. CCOC(=O)C1=C(c2ccccc2)NC(SC)=C(C#N)C1c1ccco1 (stereo not given)

assay / entry	28	29	30	31	32	33	34	35
GLA inh pH 4.5	-4	5	-1	9	-1	x	4	-2
Rango release inh	-9%	6%	3%	1%	-16%	-5%	-15%	3%
miR-21 FLuc	6%	-2%	9%	0%	-44%	-14%	-1%	7%
Rango complex inh	-2.1%	4.4%	7.0%	-2.0%	8.6%	-0.2%	-2.6%	0.7%

36. O=C(Cn1nc(-c2ccc(Cl)cc2)ccc1=O)NCCCN1CCN(Cc2ccccc2)CC1
37. CC(Oc1cc(Cl)ccc1Cl)C(=O)N/N=C\c1ccnn1C (stereo not given)
38. COc1ccc(NC(=O)CCCn2c(=O)c3sccc3n(Cc3cccc(C)c3)c2=O)cc1
39. CCN(CC)C(=O)c1sc(NC(=O)Cc2ccccc2)c(C#N)c1C
40. O=C(CN(Cc1ccco1)C(=O)c1nsc(Cl)c1Cl)NC1CCCCC1
41. COCCCn1c(SCC(=O)N2CCOCC2)nnc1-c1ccco1

assay / entry	36	37	38	39	40	41
GLA inh pH 4.5	3	-1	-9	-1	5	x
Rango release inh	-1%	11%	-5%	10%	-2%	0%
miR-21 FLuc	3%	-18%	-9%	-12%	-2%	3%
Rango complex inh	-1.1%	4.5%	-2.7%	-0.1%	0.3%	u
